# B2AR ag = human beta-2 adrenergic receptor agonism by FAP; Am2.2-beta2AR cells, FAP receptor internalization, flow cytometry; reference of the scale not given here; response, % (test concentration not listed); hit rate 0.43% among 340,000;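 active means response above a set limit, near 3 SD of response in nonfluorescent compounds, cut at about 42% in these data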;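 further: stock transfer was 100 nL into about 11 µL; a reference agonist was the positive control; negative values mostly stem from fluorescent compounds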
# Beta apoptosis = beta cell apoptosis inhibition | INS-1E cytokine-induced death, ATP luminescence, 48 h; percent of positive-control rescue, neutral wells zero | protection from apoptosis, % (concentration not given with the values) | hit rate 0.8% among 300,000 | AID 435005;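 active means all replicates at 75% or more, or half of them and the mean; inconclusive means half reach 75% but not the mean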;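 further: 0% = cytokine-treated negative control wells and 100% = positive control rescue; higher means more ATP so stronger rescue from cytokine killing; wells of about 40 µL received 100 nL stock; the first replicate is given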
# LANA-H2B inh = blocks KSHV LANA binding to histone H2A/H2B; Q9QR71; cell-free LANA-H2A/H2B peptide, fluorescence polarization; inhibition, % (test concentration not listed); hit rate 0.6% among 320,000; AID 2629; in the data active means inhibition mostly above about 10%, no sharp cut-off; inactive means mostly below about 6.7%;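 further: stock transfer was 7.5 nL into about 10 µL; 0% = median of vehicle wells and 100% = median of positive control wells; one replicate is shown; the record names a cut of 25% in any replicate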
# Target sequence (Q9QR71 whole entry, looked up): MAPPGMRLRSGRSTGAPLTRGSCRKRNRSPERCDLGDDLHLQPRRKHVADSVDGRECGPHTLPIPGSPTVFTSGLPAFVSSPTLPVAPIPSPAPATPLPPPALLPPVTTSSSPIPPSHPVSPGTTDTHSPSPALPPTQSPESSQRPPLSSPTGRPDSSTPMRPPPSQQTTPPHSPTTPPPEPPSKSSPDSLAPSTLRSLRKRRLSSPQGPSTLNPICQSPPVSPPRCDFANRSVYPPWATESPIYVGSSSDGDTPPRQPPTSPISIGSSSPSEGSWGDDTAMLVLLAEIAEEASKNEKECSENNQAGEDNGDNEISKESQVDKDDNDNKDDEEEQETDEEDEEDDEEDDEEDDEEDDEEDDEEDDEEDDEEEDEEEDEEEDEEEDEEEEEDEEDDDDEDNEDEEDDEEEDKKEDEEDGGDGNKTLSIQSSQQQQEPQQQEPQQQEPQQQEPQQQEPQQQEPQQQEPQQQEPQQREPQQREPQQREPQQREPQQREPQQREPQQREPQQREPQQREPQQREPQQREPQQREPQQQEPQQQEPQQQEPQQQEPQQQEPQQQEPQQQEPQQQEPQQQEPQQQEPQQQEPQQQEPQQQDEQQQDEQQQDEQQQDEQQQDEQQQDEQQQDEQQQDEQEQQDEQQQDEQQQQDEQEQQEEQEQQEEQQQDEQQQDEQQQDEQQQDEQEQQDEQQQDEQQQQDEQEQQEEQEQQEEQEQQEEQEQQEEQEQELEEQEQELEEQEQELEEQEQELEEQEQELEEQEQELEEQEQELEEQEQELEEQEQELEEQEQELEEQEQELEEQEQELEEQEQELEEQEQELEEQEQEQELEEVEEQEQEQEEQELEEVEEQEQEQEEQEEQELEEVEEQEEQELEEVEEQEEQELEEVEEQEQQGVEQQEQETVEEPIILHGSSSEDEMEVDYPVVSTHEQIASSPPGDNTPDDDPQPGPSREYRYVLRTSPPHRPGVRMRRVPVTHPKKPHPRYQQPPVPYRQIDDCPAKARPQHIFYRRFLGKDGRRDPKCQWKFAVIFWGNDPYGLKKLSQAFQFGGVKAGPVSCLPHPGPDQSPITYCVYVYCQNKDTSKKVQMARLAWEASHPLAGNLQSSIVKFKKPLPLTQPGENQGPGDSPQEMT
# rRNA inh HTS = inhibitors of bacterial rRNA selective over humanized ribosomes. GFP signal change (wild-type ribosome), % (test concentration not listed). E. coli WT GFP vs humanized-ribosome RFP mutants, fluorescence, 24 h; active compounds read low; DMSO median 0, no signal -100. hit rate 1.6% among 350,000. AID 720706;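 active means significant combined selectivity score with lowered wild-type GFP, culture density cut under 30%, mutant RFP and density less affected; inactive means any of these conditions unmet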; further: one replicate is shown; some compounds called inactive have numbers as strong as hits
# Calb FLC = C. albicans growth modulation with fluconazole; hit rate 0.57% among 300,000; C. albicans CaCi-2 (fluconazole-resistant clinical isolate) + fluconazole, Alamar Blue growth, 48 h; growth inhibition, % (concentration not given with the values);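 active means most replicates above 75%; inconclusive means exactly half above 75%; inactive means most below 75%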;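 further: all wells also contain fluconazole at 8 µg/ml as a sub-toxic cotreatment; 0% = median of DMSO wells and 100% = median of geldanamycin control wells; wells of about 8 µL received 7.5 nL stock; the first replicate is given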
# T cruzi inh = T. cruzi replication inhibition; T. cruzi beta-gal in NIH3T3, luminescence, 90 h; inhibition, % (no concentration beside the values); hit rate 1.4% among 300,000;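 active means mean inhibition across valid replicates above about 55%, limit read from the data; inconclusive means mean below that limit but half or more replicates reach it; inactive means mean below it, under half of replicates reach it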;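 further: signal also drops with host cell toxicity which is not excluded here; 0% = plate median of DMSO wells and 100% = zero luminescence signal; higher percent means less beta-gal luminescence so fewer parasites; stock transfer was 50 nL into about 50 µL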
# ALR H2O2 inh = inhibitors of human sulfhydryl oxidase ALR. hit rate 3.8% among 290,000. purified ALR, DTT oxidation, H2O2 HRP-luminol luminescence. P55789. inhibition, % (concentration not given with the values);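 active means mean and each replicate at 75% or more; inconclusive means only one of the two met; inactive means neither met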;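 further: stock transfer was 7.5 nL into about 7.5 µL; 0% = neutral wells and 100% = wells with inactivated enzyme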
# Bfl-1 A1 inh = inhibitors of the anti-apoptotic protein A1, read as caspase activation; MEF A1-2A-BIM cells, Caspase-Glo 3/7 luminescence, 3 h; percent of clofoctol response, vehicle zero; caspase activation, % (no concentration beside the values); hit rate 0.066% among 330,000;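 active means over half of replicate activation scores above 10%, or exactly half above 10 with the replicate mean above 10; inconclusive means replicate mean below 10 yet half the replicates above 10; inactive means over half of replicates below 10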;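 further: wells of about 30 µL received 50 nL stock; many hits fall short of the cut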
# rRNA inh HTS OD600 = recorded beside rRNA inh HTS, whose call it bears; OD600 change, %; measured here: OD600 growth;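 optical density of the mix in the first replicate; 0 = DMSO median and -100 = no signal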
# rRNA inh HTS RFP = recorded beside rRNA inh HTS, whose call it bears; RFP signal change, %; measured here: RFP humanized mutant strains;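 first replicate; 0 = DMSO median and -100 = no signal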
# An asterisk follows results filed as active; u = inconclusive; x = no result given. A portion of the library. The share of hits here may be higher or lower than overall.
SMILES,B2AR ag,Beta apoptosis,LANA-H2B inh,rRNA inh HTS,rRNA inh HTS OD600,rRNA inh HTS RFP,Calb FLC,T cruzi inh,ALR H2O2 inh,Bfl-1 A1 inh
C=CCn1c(=O)c(C(=O)OCC)c(O)c2ccccc21,0,-5,-0.9,6,1,0.1,-23,-2,-3,0.7
CN(Cc1ccccc1OCCO)CC1CCCN(CCc2ccc(Cl)cc2)C1 (stereo unspecified),-1,3,-5.6,0,-1,0.9,-2,46,x,-0.5
CN(Cc1ccon1)C(=O)C1CCN(C2CCN(CCCc3ccccc3)CC2)CC1,1,2,-2.7,7,14,5.5,-27,16,-8,-0.1
CCCCCOC(=O)c1c(N)n(CCOC)c2nc3ccccc3nc12,-19,-6,-4.7,x,x,x,u,16,-27,u
CCCCOc1nc(N)nc(-c2ccccc2)n1,4,-8,3.7,x,x,x,12,2,-1,0.1
Cn1nnnc1SCC(=O)c1ccc2c(c1)OCCO2,-2,-2,-0.3,3,7,-4.3,9,-2,39,-3.0
COC(=O)[C@H](Cc1ccccc1)NC(=O)NCCc1ccc(OC)cc1,6,-9,1.3,5,1,2.8,0,3,x,-0.8
Cc1cccc(C)c1OC(=O)CCN1C(=O)C2C3C=CC(C4CC34)C2C1=O (stereo unspecified),3,4,0.2,-7,-8,-1.2,u,3,15,0.2
O=C(COc1ccc(S(=O)(=O)NC2CCCCC2)cc1)Nc1ccc2c(c1)OCCO2,4,1,-1.0,-2,-10,2.6,2,-9,-27,-0.3
COc1ccc(CCNC(=O)CN(c2cc(OC)ccc2OC)S(=O)(=O)c2ccccc2)cc1,5,-4,-6.7,1,-1,-0.6,18,14,-7,0.0
COc1ccc(S(=O)(=O)N2CCOC2CNC(=O)C(=O)NCc2ccccn2)cc1C (stereo unspecified),1,-7,-1.7,x,x,x,0,-6,-11,1.1
CCc1ccc(C(=O)CSc2nc3cc(S(=O)(=O)N4CCOCC4)ccc3n2CC)cc1,10,3,-3.2,x,x,x,-30,6,-16,-0.2
Cn1cccc1/C=N/N1CCN(Cc2cccc3ccccc23)CC1,1,4,2.4,-7,-3,2.4,0,19,27,-0.3
C/C(=N/NC(=O)c1sc(NS(=O)(=O)c2ccccc2)nc1C)c1sc(N)nc1C,-4,-1,-0.5,2,4,2.1,-6,-1,57,0.4
Cc1cc(NC(=O)C23CC4CC(CC(C4)C2)C3)n[nH]1,2,-4,6.5,4,-1,4.3,-9,0,-20,-0.3

# Arranged by the number under B2AR ag (high to low): four of the compounds above.
Molecule	B2AR ag
COc1ccc(CCNC(=O)CN(c2cc(OC)ccc2OC)S(=O)(=O)c2ccccc2)cc1	5
Cn1cccc1/C=N/N1CCN(Cc2cccc3ccccc23)CC1	1
CN(Cc1ccccc1OCCO)CC1CCCN(CCc2ccc(Cl)cc2)C1 (stereo unspecified)	-1
Cn1nnnc1SCC(=O)c1ccc2c(c1)OCCO2	-2

# Filtered by structure, those above with an aryl thioether with sulfur outside any ring (2)
SMILES,B2AR ag,Beta apoptosis,LANA-H2B inh,rRNA inh HTS,rRNA inh HTS OD600,rRNA inh HTS RFP,Calb FLC,T cruzi inh,ALR H2O2 inh,Bfl-1 A1 inh
Cn1nnnc1SCC(=O)c1ccc2c(c1)OCCO2,-2,-2,-0.3,3,7,-4.3,9,-2,39,-3.0
CCc1ccc(C(=O)CSc2nc3cc(S(=O)(=O)N4CCOCC4)ccc3n2CC)cc1,10,3,-3.2,x,x,x,-30,6,-16,-0.2

# New compounds follow:
SMILES,B2AR ag,Beta apoptosis,LANA-H2B inh,rRNA inh HTS,rRNA inh HTS OD600,rRNA inh HTS RFP,Calb FLC,T cruzi inh,ALR H2O2 inh,Bfl-1 A1 inh
COc1ccc(NS(=O)(=O)c2ccc(N3CCOCC3)c(NC(=O)c3ccco3)c2)cc1,-12,9,-2.0,-18,-7,-0.8,-4,-18,-9,1.5
Cc1ccc(-c2cccc(C3CC=CC4C3C(=O)N(Cc3ccccc3)C4c3ccc4ccccc4c3)c2)cc1 (stereo unspecified),1,0,-1.2,-4,2,-9.8,8,-5,x,0.3
COC(=O)CN1C(=O)C2(C(C#N)=C(N)Oc3c2c(C)nn3-c2ccccc2)c2ccccc21 (stereo unspecified),-14,-8,-6.5,x,x,x,-53,-24,8,-0.3
Cc1cccc(N2CC34C=CC(O3)C(C(=O)O)C4C2=O)c1 (stereo unspecified),4,-5,-2.5,x,x,x,-2,-14,-11,1.2
CCOC(=O)N1CCN(C(=O)c2ccc3c(=O)n(-c4ccc(F)cc4)c(=S)[nH]c3c2)CC1,-2,1,-1.6,x,x,x,-7,14,59,0.2
CCOC(=O)c1[nH]c(C)c(C(=O)OC(C)C(=O)Nc2ncc(Cl)cc2Cl)c1C (stereo unspecified),-2,-2,-0.4,x,x,x,0,4,0,-0.5
COc1cc(/C=C(\C#N)C(=O)NCC2CCCO2)ccc1OC(=O)c1ccco1 (stereo unspecified),5,-6,6.7,-11,-2,-0.9,x,x,33,1.5
O=c1cccccc1NCc1ccccc1,2,-8,3.6,-3,7,-2.8,14,0,-6,1.6
Fc1ccc(/C=N/n2c(COc3ccccc3)n[nH]c2=S)cc1,13,x,-1.6,-7,-9,1.5,3,-16,x,0.7
O=C(Cc1ccc(Cl)cc1Cl)OCC(=O)N1CCCCC1,10,-7,0.5,-2,-1,0.9,1,-10,0,-0.1
COC(=O)C1NN=C(C(=O)c2ccc(Cl)cc2)C1c1ccc(OC)cc1 (stereo unspecified),-3,13,-2.4,-20,-32,-5.2,16,2,-5,-0.1
COc1ccc(/C=C2\Oc3cc(OCC(=O)N4CCC(C(=O)O)CC4)ccc3C2=O)c(OC)c1,-2,-2,-11,x,x,x,8,7,x,-0.3
COCCN(C(=O)CSc1nn(-c2ccc(F)cc2)c(=S)s1)c1c(N)n(CC(C)C)c(=O)[nH]c1=O,-5,4,-4.7,-2,-17,1.9,0,-6,-11,0.3
COc1cc(CCC(=O)OCc2nnc(-c3ccccc3)o2)cc(OC)c1OC,-11,4,-8.7,x,x,x,-5,-6,-23,0.6
CC(C)(C)C(=O)Nc1ccccc1-c1nc2ccccc2[nH]c1=O,-2,-1,-1.1,-1,0,-3.4,5,12,1,0.2
Cc1cc(C)c(-n2[nH]nnc2=S)c(C)c1,-1,-1,-0.2,16,14,3.6,4,3,5,0.3
COc1ccccc1NC(=O)C1CCN(S(=O)(=O)c2cccc3nonc23)CC1,11,-3,4.5,11,9,-1.3,-3,6,-10,0.1
O=C(NCC(=O)N1CCCCCC1)c1ccc(Cl)cc1,-1,-4,-3.1,1,12,1.6,10,3,-5,2.7
CCCC(=O)Nc1ccc2c(c1)nc(CN1CCN(C(=O)OCC)CC1)n2C,2,-3,14,6,9,3.3,-4,-5,x,0.5
Cc1cc(C)nc(N/N=C/c2c(C)oc3ccccc23)n1,1,x,0.2,3,5,0.6,-19,7,0,-0.7
Nc1cc(=O)[nH]c(SCc2csc(-c3ccccc3)n2)n1,-3,-7,0.2,5,6,23,12,-2,99*,-0.1
Cc1sc(NC(=O)c2ccco2)nc1-c1ccc2c(c1)CC(C)N2C(=O)C1CC1 (stereo unspecified),31,27,-2.1,-10,2,26,6,-26,-20,0.1
O=C(NC1CCCCCC1)C1CCCN1S(=O)(=O)c1cccc2cccnc12 (stereo unspecified),-6,0,-1.6,-2,-10,3.0,7,0,97*,0.5
CCN(CC(=O)NCc1ccc(Cl)cc1)C(=O)c1c(C)noc1C,-1,-7,-4.5,11,-2,-0.2,x,x,-1,0.9
S=C(NCC1CCCO1)n1nnc2ccccc21 (stereo unspecified),x,-13,3.7,x,x,x,-8,-9,3,-1.1
CCOc1ccc(-c2nn3c(-c4ccccc4)nnc3s2)cc1,-1,-4,-1.3,x,x,x,34,-13,-12,-0.2
Cc1onc(-c2ccccc2)c1C(=O)N(Cc1ccccn1)Cc1ccccn1,13,-4,-5.4,5,0,1.8,16,12,-1,-0.4
CCOC(=O)c1sc(NS(=O)(=O)c2ccc(F)cc2)nc1C,-1,-3,0.8,-30,-40,-3.3,32,5,3,-0.6
CCc1nnc(NS(=O)(=O)c2ccc(NS(=O)(=O)c3ccccc3)cc2)s1,2,5,-3.5,4,-7,-2.6,1,-8,36,1.4
CCOc1cc(C(c2c(O)nc(SC)[nH]c2=O)c2c(O)nc(SC)[nH]c2=O)ccc1O,-1,-8,3.9,3,4,0.2,0,-5,15,0.3
Cc1nn(C)c(C)c1S(=O)(=O)N1CCCC(C(=O)N2CCN(c3ccc(Cl)cc3)CC2)C1 (stereo unspecified),-6,4,-5.2,x,x,x,7,-8,51,0.2
CC(=O)N(CCCN(C)C)c1nc2ccc(C)cc2s1,-5,-2,-5.6,8,2,1.6,-10,58*,-31,-0.3
COC(=O)C1=C(CSc2nc3c(cc2C#N)CN(C)CC3)OC(N)=C(C#N)C1c1ccccc1F (stereo unspecified),7,-5,5.5,x,x,x,17,32,-4,-0.1
CCc1nnc(NC(=O)c2cc(C)oc2C)s1,-1,-5,-2.5,8,10,1.3,15,-2,7,-0.3
C[C@H](NS(=O)(=O)c1c(Cl)cccc1Cl)C(=O)NNC(=O)COc1ccccc1F,4,4,8.6,1,8,-1.6,x,x,x,0.5
C/C(=N\O)C(C)(C)NC(=O)Nc1ccc(Cl)cc1,-2,5,4.4,x,x,x,-42,-9,-11,0.6
CCOCCn1cnc2sc(C(=O)NCC(=O)OCC)c(C)c2c1=O,-6,x,3.2,x,x,x,-1,1,-1,0.1

# Laid out differently: entries from further up
COC(=O)C1=C(CSc2nc3c(cc2C#N)CN(C)CC3)OC(N)=C(C#N)C1c1ccccc1F (stereo unspecified)
  B2AR ag: 7 | Beta apoptosis: -5 | LANA-H2B inh: 5.5 | rRNA inh HTS: x | rRNA inh HTS OD600: x | rRNA inh HTS RFP: x | Calb FLC: 17 | T cruzi inh: 32 | ALR H2O2 inh: -4 | Bfl-1 A1 inh: -0.1
CCc1nnc(NC(=O)c2cc(C)oc2C)s1
  B2AR ag: -1 | Beta apoptosis: -5 | LANA-H2B inh: -2.5 | rRNA inh HTS: 8 | rRNA inh HTS OD600: 10 | rRNA inh HTS RFP: 1.3 | Calb FLC: 15 | T cruzi inh: -2 | ALR H2O2 inh: 7 | Bfl-1 A1 inh: -0.3
CC(=O)N(CCCN(C)C)c1nc2ccc(C)cc2s1
  B2AR ag: -5 | Beta apoptosis: -2 | LANA-H2B inh: -5.6 | rRNA inh HTS: 8 | rRNA inh HTS OD600: 2 | rRNA inh HTS RFP: 1.6 | Calb FLC: -10 | T cruzi inh: 58* | ALR H2O2 inh: -31 | Bfl-1 A1 inh: -0.3
C/C(=N\O)C(C)(C)NC(=O)Nc1ccc(Cl)cc1
  B2AR ag: -2 | Beta apoptosis: 5 | LANA-H2B inh: 4.4 | rRNA inh HTS: x | rRNA inh HTS OD600: x | rRNA inh HTS RFP: x | Calb FLC: -42 | T cruzi inh: -9 | ALR H2O2 inh: -11 | Bfl-1 A1 inh: 0.6

# Screening results: PubChem BioAssay, several laboratories
